Screens from PubChem BioAssay.
TRPML1 inh: qHTS for Inhibitors of the Human Mucolipin Transient Receptor Potential 1 (TRPML1); TRPML1-inducible cells, Ca2+ dye fluorescence, FDSS; active compounds read low; inhibition of EC80 agonist-evoked calcium signal; activity change, negative = inhibition, % (concentration not given with the values); actives 0.02% (n = 390,000); AID 624415, 2012; in the data active means activity change below about -50%; inconclusive means about -30% to -50%; inactive means above about -30%;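 also: stimulus is agonist 54-4 at its EC80 concentration; % is scaled to controls: 0 for no effect and ±100 for the full control effect; the text of the record puts the active cut at -80%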
Target sequence (Q9GZU1 whole entry, looked up): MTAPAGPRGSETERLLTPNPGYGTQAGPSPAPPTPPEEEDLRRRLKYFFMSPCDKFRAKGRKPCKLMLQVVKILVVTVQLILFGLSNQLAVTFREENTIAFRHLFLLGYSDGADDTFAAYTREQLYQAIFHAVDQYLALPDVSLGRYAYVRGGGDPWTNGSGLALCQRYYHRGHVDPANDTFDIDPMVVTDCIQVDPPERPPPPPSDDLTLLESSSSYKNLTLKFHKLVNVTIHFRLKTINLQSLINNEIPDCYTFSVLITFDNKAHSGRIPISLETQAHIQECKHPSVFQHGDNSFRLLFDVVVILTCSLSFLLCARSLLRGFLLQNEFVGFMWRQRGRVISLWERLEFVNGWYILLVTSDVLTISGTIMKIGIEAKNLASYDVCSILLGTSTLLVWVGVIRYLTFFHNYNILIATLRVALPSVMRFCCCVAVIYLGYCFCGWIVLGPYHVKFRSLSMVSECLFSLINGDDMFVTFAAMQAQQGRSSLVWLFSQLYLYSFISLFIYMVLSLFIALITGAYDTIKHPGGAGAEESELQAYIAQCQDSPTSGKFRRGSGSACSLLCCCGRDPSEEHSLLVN
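Tet-induced TRPML1-DL cells loaded with Ca8 no-wash calcium dye were read kinetically on FDSS. Compound addition was followed by EC80 agonist 54-4 (4 uM final); inhibition was read over 110 s.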
TRPML1 ag: qHTS for Agonists of the Human Mucolipin Transient Receptor Potential 1 (TRPML1). AID 624414, 2012. Mucolipin-1 (Homo sapiens), Q9GZU1. activation, % (test concentration not listed). TRPML1-expressing cells, Ca2+ dye fluorescence, FDSS; host cell line not named in the record; reference of the full effect not given here. actives 0.12% (n = 410,000); in the data active = activation above about 50%; inconclusive = about 30% to 50%; inactive = below about 30%; also: 0% is about no effect; the text of the record puts the active cut at 80%
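Tet-induced TRPML1-DL cells, 1,500 per well, cultured overnight, were loaded with a no-wash Ca2+ dye for 45–90 min. Calcium fluorescence was recorded on the FDSS for 110 s after compound addition, before the EC80 agonist (4 uM 54-4) was added.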
PINK1 expr mod: A Quantitative High throughput Screen to Identify Chemical Modulators of PINK1 Expression; PINK1 immunofluorescence, high-content cytometry, 24 h; Potency, µM (series often up to 76.6 µM), for the others: at the top dose activation (PINK1 increase), most hits filed as activators; actives 0.2% (n = 410,000); AID 624263, 2012; active = well fitted activation curve with a large enough effect; inconclusive = small, poorly fitted or top-dose-only effect; inactive = flat fitted curve, though single readings scatter; cell line not stated here;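 also: potency is read from the fitted curve at half-maximal effect; % of control where 0% means no effect; nearly all actives have a fitted effect of over 65% in size; a mitochondrial uncoupler was the plate control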
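Stable cell line, 250 cells/well, 12 h attachment; compounds pinned at 5 concentrations, 24 h; CCCP control. Fixed with nuclear dye, primary antibodies 12 h at 10 degrees C, secondary plus cell stain; laser-scanning cytometer read.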
D2 potentiator: Beta-Arrestin HTS for Positive Allosteric Modulators of the Human D2 Dopamine Receptor: Potentiators; actives 0.23% (n = 360,000); D(2) dopamine receptor (Homo sapiens), P14416; DiscoveRx D2 beta-arrestin cells, luminescence, 90 min; 100% = 57 uM dopamine signal; AID 624464, 2012; potentiation, % (concentration not given with the values); active = potentiation of 50% or more; inconclusive = 30% to 50%; inactive = 30% or less;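 also: compound concentration not given in the record; tested on top of an EC20 dose of dopamine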
Target sequence (P14416 whole entry, looked up): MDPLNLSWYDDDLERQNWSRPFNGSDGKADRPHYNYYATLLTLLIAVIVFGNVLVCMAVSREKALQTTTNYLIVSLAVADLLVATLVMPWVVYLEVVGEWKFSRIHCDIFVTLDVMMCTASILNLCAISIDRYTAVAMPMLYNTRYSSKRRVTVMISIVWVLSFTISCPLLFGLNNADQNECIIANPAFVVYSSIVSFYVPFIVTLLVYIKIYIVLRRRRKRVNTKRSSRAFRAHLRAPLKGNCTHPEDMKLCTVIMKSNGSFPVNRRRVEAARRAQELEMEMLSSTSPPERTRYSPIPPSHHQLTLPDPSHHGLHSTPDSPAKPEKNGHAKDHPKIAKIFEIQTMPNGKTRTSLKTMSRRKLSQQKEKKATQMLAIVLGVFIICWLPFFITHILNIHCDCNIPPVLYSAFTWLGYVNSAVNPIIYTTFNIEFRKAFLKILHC
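PathHunter beta-arrestin assay in DiscoveRx D2 cells. Compounds were added with an EC20 of dopamine (50 nM final) for 90 min at 37 deg C. Luminescence was read 1 h after detection reagent, with 57 uM dopamine as the EC100 control.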
Six1-Eya2 inh: qHTS Assay for Inhibitors of the Six1/Eya2 Interaction; Homeobox protein SIX1 (Homo sapiens) + Protein phosphatase EYA2 (Homo sapiens), …; AlphaScreen GST-Six1/His-Eya2 binding, biochemical; active compounds read low; control for the full effect not named in the record; activity change, % (test concentration not listed); actives 0.56% (n = 360,000); AID 651725, 2012; in the data active = activity change below about -65%; inconclusive = about -30% to -65%; inactive = above about -30%; also: % is scaled to controls: 0 for no effect and ±100 for the full control effect
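AlphaScreen luminescence read after one hour at 37 °C in darkness. Pin-transferred compounds met GST-Six1 and His-Eya2 protein (5X stock 250 nM/500 nM) plus glutathione donor and Ni-chelate acceptor beads (5X, 50 ug/mL).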
D2 ag: Beta-Arrestin HTS for Positive Allosteric Modulators of the Human D2 Dopamine Receptor: Agonists; DiscoveRx PathHunter D2 beta-arrestin, luminescence, 90 min; 100% = 57 uM dopamine signal; activation, % (concentration not given with the values); D(2) dopamine receptor (Homo sapiens), P14416; AID 624465, 2012; actives 0.084% (n = 360,000); in the data active = activation above about 40%; inconclusive = about 15% to 40%; inactive = below about 15%; also: compound concentration not given in the record; the text of the record calls up to 30% inactive
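Agonist mode: compounds alone added to overnight-plated D2 PathHunter cells for 90 min at 37 C, with 57 uM final dopamine (EC100) defining full response. Beta-arrestin recruitment detected by chemiluminescent reagent, read after 1 h at ambient temperature.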
The depositor's hits bear a star; ? = inconclusive; . = not tested or not shown; [ ] = another dose, or the depositor's remark.

SMILES | TRPML1 inh | TRPML1 ag | PINK1 expr mod | D2 potentiator | Six1-Eya2 inh | D2 ag
CC1=C(C(=O)OC(C)C)C(c2ccc(N(C)C)cc2)C2=C(CC(C)(C)CC2=O)N1 (stereo unspecified) | 11 | -0.7 | 0.9% | 11 | ? | -2.0
Cc1ccccc1N1C(=O)C(Oc2ccc(Cl)cc2)C1CNCC1CCCO1 (stereo unspecified) | 13 | 0.8 | 0.3% | -14 | -1 | 0.1
COc1ccc(NC(=O)CN(C)C(=O)c2ccc(S(=O)(=O)Nc3ccccc3C)cc2)cc1 | 9 | 0.1 | 2.5% | 4 | -3 | -4.2
O=C(CSc1ncccn1)NC(=O)Cc1ccccc1 | 0 | -0.6 | 0.7% | -2 | 3 | -2.4
CC(C)c1cc(-c2nc(-c3ccc(Br)cc3)no2)n[nH]1 | 19 | 2.7 | 0.8% | . | . | .
CCC(C)NC(=O)C1c2ccccc2Oc2ccccc21 (stereo unspecified) | 17 | 0.9 | 7.9% | -8 | -8 | -2.3
Cc1ccc2c(c1)-c1c(cnc3cc(-c4ccc(F)cc4)nn13)CO2 | 3 | -0.5 | 0.4% | . | . | .
COc1ccc2oc(C(=O)OC(C)C(=O)Nc3ccc(N4CCOCC4)cc3)c(C)c2c1 (stereo unspecified) | 7 | 4.0 | 7.2% | 0 | -1 | 4.6
CCN(CC)CCNC(=O)c1ccc2c(=O)n3nc(Nc4cccc(Cl)c4C)sc3nc2c1 | -4 | 0.9 | 4.3% | . | . | .
COCCNC(=O)c1cc(-c2ccccn2)nc2ccc(S(=O)(=O)N3CCC(C)CC3)cc12 | -4 | 2.7 | 1.2% | -6 | 3 | -1.9
COc1cc(CNc2nnnn2C)ccc1OCc1c(F)cccc1Cl | -6 | -0.1 | 1.2% | -10 | 3 | -3.5
O=C1NC2(CCCCCC2)C(=O)N1Cc1ccc(Cl)cc1Cl | -23 | -0.1 | 1.5% | 0 | 7 | 3.7
Cc1c(N(C)S(=O)(=O)c2cc(C(=O)N3CCCC3)ccc2Cl)c(=O)n(-c2ccccc2)n1C | 0 | -0.3 | 0.2% | -5 | 0 | -3.2
CC(CC1C(C#N)=C(N)SC(N)=C1C#N)c1ccccc1 (stereo unspecified) | 2 | 2.1 | ? | -6 | -2 | -5.2
CCC(CC)C(=O)Nc1cccc(S(=O)(=O)c2cccc(NC(=O)C(CC)CC)c2)c1 | -16 | 1.9 | . | -5 | 2 | 3.1
CCN(CC(=O)Nc1ccc(NC(C)=O)cc1)C(=O)c1cc2c(s1)CCCCC2 | -10 | -0.7 | 2.1% | 0 | -2 | 5.4
CC(C)CCNC(=O)c1cc2c(=O)n3ccccc3nc2s1 | 5 | 1.6 | 3.1% | 0 | -10 | -2.8
CCN1CCN(Cc2c(O)ccc3c(=O)c(-c4ccccc4OC)coc23)CC1 | -6 | 0.2 | . | -9 | 5 | -4.0
COc1ccc(NC(C)=O)cc1NC(=O)CN1CCN(C(=O)c2ccco2)CC1 | 12 | 2.7 | -1.1%[38.3 µM] | -16 | 0 | -1.0
COc1ccc(/C=N/NC(=O)C(=O)N2CCCC2)cc1 | 19 | 1.7 | -0.2% | 6 | 9 | 0.3

Reprinted at random: 3 records from the list.
SMILES | TRPML1 inh | TRPML1 ag | PINK1 expr mod | D2 potentiator | Six1-Eya2 inh | D2 ag
CC(C)c1cc(-c2nc(-c3ccc(Br)cc3)no2)n[nH]1 | 19 | 2.7 | 0.8% | . | . | .
CC(C)CCNC(=O)c1cc2c(=O)n3ccccc3nc2s1 | 5 | 1.6 | 3.1% | 0 | -10 | -2.8
COc1ccc(NC(=O)CN(C)C(=O)c2ccc(S(=O)(=O)Nc3ccccc3C)cc2)cc1 | 9 | 0.1 | 2.5% | 4 | -3 | -4.2

Later entries:
SMILES | TRPML1 inh | TRPML1 ag | PINK1 expr mod | D2 potentiator | Six1-Eya2 inh | D2 ag
CC(C)(C)c1ccc(C(=O)c2c[nH]c(C(=O)NCc3ccco3)c2)cc1 | -4 | -0.2 | 13% | 0 | 11 | 4.3
O=C(NCC1CCCO1)c1ccccc1NS(=O)(=O)c1cccs1 (stereo unspecified) | 15 | 0.3 | 0.3% | 4 | 9 | -1.4
Cc1cc(OCC(=O)c2ccc(Br)cc2)ccc1N1C(=O)CCC1=O | 0 | -0.8 | ? | 3 | 0 | -5.1
O=C(O)CCCCNCc1ccccc1 | -3 | 0.6 | 10%[38.3 µM] | -11 | 0 | -0.6
O=C(CCn1cccn1)N1CCCC(N2CCN(c3cccc(Cl)c3)CC2)C1 (stereo unspecified) | -14 | 0.9 | -2.4% | -16 | 0 | 0.6
O=C(COc1cccnc1[N+](=O)[O-])N1CCN(S(=O)(=O)c2ccc3ccccc3c2)CC1 | 13 | -0.2 | 1.8% | 2 | -10 | -1.9
S=C(NC1CC1)SCc1ccco1 | 1 | -0.6 | 10% | 0 | 1 | -4.7
O=C(CN1CCN(c2ccc(O)cc2)CC1)N(C1CC1)C1CCS(=O)(=O)C1 (stereo unspecified) | -2 | 0.5 | -0.2% | 28 | 6 | 11
Cc1ccc(Nc2nc(Nc3ccc(C)c(C)c3)nc(N3CCOCC3)n2)cc1C | -21 | -0.1 | -0.4% | . | . | .
Cc1cc(C=C2C(=O)c3ccccc3C2=O)c(C)n1-c1ccc(C(=O)O)cc1 | 12 | 1.4 | -0.8% | -8 | -1 | -1.9
C(=N\Nc1ccc2nncn2n1)/c1ccco1 | -11 | -0.2 | -0.9% | 0 | -6 | 5.2
CCCNC(=O)C1(C)CCCN(C(=O)Cc2cccc(OC)c2)C1 (stereo unspecified) | . | -0.2 | 1.4% | -7 | 6 | 9.2
COc1ccc2c(c1)C(NC(C)=O)C(=O)N2CCc1ccccc1 (stereo unspecified) | -3 | -1.3 | 0.2% | -4 | 1 | -4.7
O=C(Nc1ccccc1)c1cc(-c2ccccc2Cl)no1 | 73 | 1.1 | 4.0% | -16 | -4 | 0.6
O=[N+]([O-])c1cccc(COc2ccc(CN3CCCCC3)cc2)c1 | -13 | -0.3 | 0.5% | . | -7 | -1.9
COC(=O)C1(O)CC(C(C)C)=NN1C(=O)c1ccccc1 (stereo unspecified) | 1 | -0.6 | -1.4% | -8 | 6 | -3.8
CCN(CC(=O)Nc1c(F)cccc1F)C(=O)Cc1ccc2c(c1)CCC2 | 39 | 1.2 | -1.9% | 4 | 0 | -3.8
COc1ccc(C(=O)Nc2ccc(S(=O)(=O)Nc3cc(C)nc(C)n3)cc2)cc1OC | -12 | 0.2 | -1.2% | -3 | -7 | -1.7
CCOC(=O)C1(Cc2ccccc2)CCN(Cc2cccn2-c2cccnc2)CC1 | 3 | 1.3 | -0.1% | -16 | -20 | -2.9
O=[N+]([O-])c1ccc(Oc2cccc3cccnc23)c([N+](=O)[O-])c1 | 3 | 6.8 | 5.9% | 10 | ? | -0.2
CCN(CC)CCNc1nc(-c2cccs2)c(CC(=O)O)s1 | 31 | 0.5 | 1.9% | -15 | 2 | -2.3
COc1cc(/C=N/N2C(=O)c3ccccc3NC2(C)c2cccc([N+](=O)[O-])c2)cc(Br)c1O (stereo unspecified) | 2 | -1.3 | 3.4% | -10 | -11 | 3.0
Cc1ccc(S(=O)(=O)NCC(=O)OCC(=O)Nc2ncc(Cl)cc2Cl)cc1 | 18 | 2.0 | 3.5% | -5 | 6 | -1.6
Cc1ccc(OCC(=O)NNC(=O)C2CCN(c3nccc(C)n3)CC2)cc1 | -3 | 0.8 | . | -27 | 1 | -3.3
c1ccc(C2(CNc3ccccn3)CCCC2)cc1 | -6 | 2.1 | 6.7%[38.3 µM] | -7 | 2 | 2.1
O=C(Nc1ccccc1)N(Cc1ccccc1)CC(O)C(F)(F)F (stereo unspecified) | 4 | 0.0 | -0.9% | -7 | 5 | 4.8
CC(=O)NCCn1c(SCC(=O)NCC2CCCO2)nc2ccccc2c1=O (stereo unspecified) | -8 | -0.7 | 19%[38.3 µM] | -2 | 11 | -2.4
CCOC(=O)c1sc(N(Cc2ccccc2)C(=O)CSc2nnc(C3CC3)n2N)nc1C | 3 | 0.4 | -0.3% | -9 | -3 | -3.4
Cc1noc(NS(=O)(=O)c2ccc(NC(=O)/C=C/c3ccc(Cl)cc3Cl)cc2)c1C | -5 | -0.4 | -0.2% | -2 | -6 | -1.7
CSc1nnc(-c2cc(-c3ccc(C)cc3)nc3ccccc23)o1 | 4 | -0.1 | 5.2% | -23 | 5 | -3.0

Three entries from above, comma-delimited:
mol,TRPML1 inh,TRPML1 ag,PINK1 expr mod,D2 potentiator,Six1-Eya2 inh,D2 ag
CC(=O)NCCn1c(SCC(=O)NCC2CCCO2)nc2ccccc2c1=O (stereo unspecified),-8,-0.7,19%[38.3 µM],-2,11,-2.4
CCOC(=O)c1sc(N(Cc2ccccc2)C(=O)CSc2nnc(C3CC3)n2N)nc1C,3,0.4,-0.3%,-9,-3,-3.4
Cc1noc(NS(=O)(=O)c2ccc(NC(=O)/C=C/c3ccc(Cl)cc3Cl)cc2)c1C,-5,-0.4,-0.2%,-2,-6,-1.7

Remaining list, next part
SMILES | TRPML1 inh | TRPML1 ag | PINK1 expr mod | D2 potentiator | Six1-Eya2 inh | D2 ag
Cc1ccc2nc(SCC(=O)NC3CCCCC3)nc(=O)n2c1 | -2 | 0.4 | -0.4% | 9 | 3 | 5.9
Cc1nn(Cc2c(F)c(F)c(F)c(F)c2F)c(C)c1NC(=O)c1ccc(COc2ccccc2Cl)cc1 | 4 | -0.2 | 7.0% | -7 | 0 | -1.1
CC(CNC(=O)COC(=O)c1cccnc1Cl)c1ccccc1 (stereo unspecified) | -15 | 0.2 | -1.7% | 4 | 3 | -3.9
O=C(c1ccccc1)N1CCN(C(=O)c2ccc3c(c2)OCO3)CC1 | 2 | -0.5 | 0.9% | -1 | -2 | -1.9
CCOC(=O)c1noc2ncnc(Nc3cc(Cl)c(OC)cc3OC)c12 | 16 | -0.6 | 1.1% | . | . | .
CC(C)c1ccc(S(=O)(=O)c2nnn3c2nc(NCC2CCCO2)c2ccccc23)cc1 (stereo unspecified) | 9 | -0.2 | 0.6% | 0 | 4 | 1.2
O=C(Nc1ccc(OC(F)F)c(Cl)c1)Nc1ccc2c(c1)OCO2 | 12 | 1.4 | 10% | -11 | 2 | 2.7
